Screening data (PubChem)
TRPV1 potentiator: human TRPV1 potentiation; TRPV1-expressing cells, Fluo-8 calcium influx, capsaicin EC20 potentiation; host cell line not named in the record; control for the full effect not named in the record; potentiation, % at 8.33 µM; 0.02% of 320,000 active; AID 540277; active means potentiation above 80%; inconclusive means 30% to 80%; inactive means below 30%; further: 0% is about no effect
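Fluo-8 calcium influx in TRPV1-expressing cells, kinetic read (ex 480/em 520 nm). Compound added and read 3 min for agonist activity, followed by capsaicin at EC20 final and 2 min further read for enhancement.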
Sfp inh: blocks B. subtilis Sfp PPTase activity. 3.5% of 310,000 active. Biochemical Sfp PPTase activity, qHTS. Q9F4F7. Potency, µM, inactives show max response, negative = inhibition, actives largely listed as inhibitors; active means well fitted inhibition curve with a large enough effect; inconclusive means small, poorly fitted or top-dose-only effect, or another doubt; inactive means no such curve, though single readings can be large or run the other way;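 further: the enzyme is Sfp with the accession as filed and its product quenches rhodamine fluorescence; potency means the concentration at half of the fitted maximal effect; 0% = enzyme reaction without inhibitor and -100% = no enzyme wells; top concentration of the series not given in the record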
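Step 1, compound plus 15 nM Sfp-PPTase, 15 min, room temperature. Step 2, add rhodamine-CoA (5 uM) and BHQ-2-YbbR (12.5 uM). Step 3, read 525/598 nm fluorescence at 0 and 30 min.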
ClpP mod: qHTS Assay for Activators of ClpP; ATP-dependent Clp protease proteolytic subunit (Bacillus subtilis (strain 168)), P80244; Potency, µM (titrated, usually from 57.5 µM), inactives show at the highest dose activity change, negative = active; 1.9% of 340,000 active; purified B. subtilis ClpP, FRET peptide cleavage, 20 min; active = well fitted falling curve with a large enough effect; inconclusive = small, poorly fitted or top-dose-only effect; inactive = no such curve, though single readings can be large or run the other way; further: potency means the concentration at half of the fitted maximal effect; the source files actives as falling curves though it sought activators and does not explain the sign; nearly all actives have a fitted effect of over 65% in size; many hits overshoot -100%
Target sequence (P80244 whole entry, looked up): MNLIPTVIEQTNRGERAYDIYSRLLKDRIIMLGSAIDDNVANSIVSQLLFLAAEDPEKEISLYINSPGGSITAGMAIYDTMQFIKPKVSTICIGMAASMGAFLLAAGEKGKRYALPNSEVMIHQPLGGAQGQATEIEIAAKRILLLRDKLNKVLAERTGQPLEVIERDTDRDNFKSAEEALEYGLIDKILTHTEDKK
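Buffer: 100 mM Tris/HCl pH8, 100 mM KCl, 0.05% low protease BSA, 2.5% glycerol, 0.01% Tween-20. ClpP 10 microg/mL final; 20 min RT; delta FRET normalized to ADEP and DMSO controls.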
Menin MLL FP FL: menin-MLL binding inhibition, fluorescein peptide; Fluorescence polarization, fluorescein-MLL peptide displacement from menin; FP activity change, % at 61.4 µM; 290,000 tested, under 10 active; AID 1766; inconclusive = falling polarisation curve, or a change in total fluorescence; inactive = total fluorescence flat and polarisation flat or rising; no compound was filed as active; the % refers to the polarisation; negative = inhibition;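 further: % of control where 0% means no effect; inhibitors lower the polarisation; unlabelled MLL peptide was the positive control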
PINK1 expr mod: PINK1 expression modulation. PINK1 immunofluorescence, high-content cytometry, 24 h. Potency, µM (titrated, usually from 76.6 µM), for inactives: at the highest dose activation (PINK1 increase), usual class: activators. AID 624263. 0.2% of 410,000 active; active = well fitted activation curve with a large enough effect; inconclusive = small, poorly fitted or top-dose-only effect; inactive = flat fitted curve, though single readings scatter; cell line not stated here;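 further: potency means the concentration at half of the fitted maximal effect; % of control where 0% means no effect; nearly all actives have a fitted effect of over 65% in size; a mitochondrial uncoupler was the plate control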
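Fluorescence from anti-PINK1 antibody, together with nuclear and cell stains, was scanned on a laser-scanning cytometer. Before staining, stable-line cells were incubated 24 hours with compounds at 5 concentrations; primary antibody 12 h at 10 degrees C.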
TRPML1 blocker: blocks the human TRPML1 channel; AID 624415; Q9GZU1; 0.02% of 390,000 active; activity change, negative = inhibition, % (test concentration not listed); TRPML1-inducible cells, Ca2+ dye fluorescence, FDSS; hits give low values; inhibition of EC80 agonist-evoked calcium signal; in the data active means activity change below about -50%; inconclusive means about -30% to -50%; inactive means above about -30%;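 further: stimulus is agonist 54-4 at its EC80 concentration; on the % scale 0 is the no-effect control and ±100 the full control effect; compound concentration not given in the record; the text of the record puts the active cut at -80%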
Target sequence (Q9GZU1 whole entry, looked up): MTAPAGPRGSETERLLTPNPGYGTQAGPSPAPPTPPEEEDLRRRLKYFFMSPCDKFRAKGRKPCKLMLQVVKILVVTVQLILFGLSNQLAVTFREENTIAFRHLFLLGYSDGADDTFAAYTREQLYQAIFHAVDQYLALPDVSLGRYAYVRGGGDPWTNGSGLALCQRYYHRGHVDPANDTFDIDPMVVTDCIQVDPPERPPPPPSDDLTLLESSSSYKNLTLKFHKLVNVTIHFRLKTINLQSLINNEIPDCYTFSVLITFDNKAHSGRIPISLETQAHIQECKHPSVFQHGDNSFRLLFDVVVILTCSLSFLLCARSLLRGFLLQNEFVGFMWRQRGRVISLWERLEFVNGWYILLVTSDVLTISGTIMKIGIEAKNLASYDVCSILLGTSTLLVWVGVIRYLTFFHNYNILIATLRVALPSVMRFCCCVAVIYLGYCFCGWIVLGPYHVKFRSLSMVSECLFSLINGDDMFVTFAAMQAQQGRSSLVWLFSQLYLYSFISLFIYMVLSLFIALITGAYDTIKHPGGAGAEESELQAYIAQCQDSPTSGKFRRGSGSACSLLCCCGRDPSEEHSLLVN
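Calcium fluorescence in TRPML1-DL cells induced overnight with Tet: a 110 s read after compound pin addition, then a 110 s antagonist read after challenge with 54-4 at 4 uM final (EC80).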
TRPML1 agonist: activates the human TRPML1 channel | TRPML1-expressing cells, Ca2+ dye fluorescence, FDSS; host cell line not named in the record; reference of the full effect not given here | 0.12% of 410,000 active | Q9GZU1 | activation, % (test concentration not listed); in the data active = activation above about 50%; inconclusive = about 30% to 50%; inactive = below about 30%; further: 0% is about no effect; the text of the record puts the active cut at 80%
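Tet-induced TRPML1-DL cells, 1,500 per well, cultured overnight, were loaded with a no-wash Ca2+ dye for 45–90 min. Calcium fluorescence was recorded on the FDSS for 110 s after compound addition, before the EC80 agonist (4 uM 54-4) was added.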
* marks the source's active call; other numbers are inactive results; ? = inconclusive; · = no result given; & = joins results of further samples; [ ] = remark or other dose. Compounds were not picked by outcome; overall some 4.4% were active at least once.

Structure,ClpP mod,PINK1 expr mod,Menin MLL FP FL,TRPV1 potentiator,TRPML1 agonist,TRPML1 blocker,Sfp inh
COc1ccc(C=O)cc1COc1ccccc1F,-1.9%,1.9%,3.0,21,1.2,2,4%
COc1ccc(NC(=O)CN(C)C(=O)c2cc3c(s2)CCC(C)C3)cc1 (centres undefined),1.1%,1.4%,·,5,1.5,-11,8%
CCc1ccc(N2CC(C(=O)N3CCN(c4ccccn4)CC3)CC2=O)cc1 (centres undefined),28µM*,2.5%,·,-7,-0.2,5,·
COC1CCCCC1NS(=O)(=O)c1ccc(Cl)cc1 (centres undefined),-1.3%,2.0%,3.7,4,-0.8,-9,6%
O=C(Nc1ccc(F)cc1F)c1ccc2c(c1)OCCO2,·,2.5%,0.6,-13,-0.3,1,11%
CCOC(=O)C(NCc1ccccc1)(NC(=O)c1ccccc1)C(F)(F)F (centres undefined),-0.4%,0.9%,-0.7,-2,0.0,-6,9%
COc1cccc(N=C2NC(=O)/C(=C/c3cc([N+](=O)[O-])ccc3O)S2)c1,·,0.5%,?,9,12,-13,-8%
CCOC(=O)c1cc(-c2ccccc2)n(CC(=O)NC2CCC(C)CC2)c1C (centres undefined),1.6%,-0.1%,·,·,2.8,-16,·
COc1ccc(CN2C(=O)C(CC(=O)NC3CCCCC3)CC(C(=O)N3CCOCC3)=C2C)cc1 (centres undefined),-6.3%,-0.4%,·,·,0.7,-7,·
COc1ccc(-c2nnc(NC(=O)CSc3ccc(Cl)cc3)s2)cc1OC,-8.1%,7.9%,·,12,1.2,-1,-3%
CC(O)[C@H]1CN=C(N)N1CC(C)(C)C (some centres undefined),0.1%,4.8%,·,·,-0.2,8,·
COCCCNc1nc2c(S(=O)(=O)c3ccc(C)c(C)c3)nnn2c2ccc(Cl)cc12,3.7%,-0.8%,·,·,0.2,7,·
COC(=O)C(C)Sc1ccc2nnc(CCNS(=O)(=O)c3ccc(C)cc3)n2n1 (centres undefined),-8.4%&-13%,3.8%&1.4%,0.5,-3,1.2&0.1,-17&7,20%
COc1ccc(OC)c(C(c2nnnn2CC2CCCO2)N2CCN(C3CCCC3)CC2)c1 (centres undefined),-4.0%,0.9%,0.8,14,-0.2,?,5%
Cc1ccc(S(=O)(=O)NC(=O)Nc2c(C)cccc2C)cc1,·,2.4%,2.8,?,-0.5,13,11%
COc1ccc(S(=O)(=O)n2ccc(C)n2)cc1C,0.8%,·,2.7,0,-0.5,-14,16%
CCCCN(C(=O)CSc1nnc(-c2ccc(OC)cc2)n1C(C)C)c1c(N)n(Cc2ccccc2)c(=O)[nH]c1=O,1.9%,8.1%,2.7,3,1.2,-7,16%
O=C(CNC(=O)Cc1ccccc1)NCC(=O)OCC(=O)c1ccc(F)cc1,-0.2%,4.5%,1.7,-7,0.0,19,1%
O=C(NCC(c1ccco1)N1CCc2ccccc21)c1ccccc1Br (centres undefined),-0.9%,3.7%,·,-5,0.8,11,·
Cc1nc2ncnn2c(C)c1CCC(=O)NCc1cccc(Cl)c1,-2.9%,0.5%,·,·,-0.6,6,·
COc1cc(CNc2ccc(CNc3ncn[nH]3)cc2)ccc1OCc1ccccc1,-2.1%,0.4%,11,-5,-0.9,-11,-2%
Nc1nc(SCC(=O)Nc2ccccc2Sc2ccc(Cl)cc2)n[nH]1,-2.2%,-0.4%,2.2,-1,-0.2,12,3%
Cc1ccc(C(=O)OCC(=O)NCc2ccco2)s1,·,3.6%,?,7,-0.5,-8,45µM*
CC(C)Oc1ccc(CN2CCCC(CO)(Cc3ccccc3)C2)cc1CO (centres undefined),·,1.3%,8.0,10,0.0,48,6%
COC(=O)C1=C2SC(C)C(=O)N2C(N)=C(C#N)C1c1cc(OC)c(OC)c(OC)c1 (centres undefined),0.0%,-1.8%,4.3,-10,-0.8,9,35µM*
O=C(/C=C/c1ccccc1)OCc1cncs1,·,-0.1%,-2.8,-21,-0.1,-6,12%
Cc1cccc(-c2nc(CN3CCN(Cc4cccc(F)c4)CC3)c(C)o2)c1,-3.2%,2.1%,0.2,15,0.3,-1,-2%
Cc1cc(Br)ccc1NC(=O)CN1C(=O)c2cccnc2Sc2ccccc21,0.7%,1.1%,·,·,0.1,27,·
COC(=O)COc1ccccc1/C=C1/NC(=O)NC1=O,-10%,0.1%,1.6,0,-0.2,22,4%
CC(=O)N1CCN(CC(=O)Nc2ccc(SC(F)F)cc2)CC1,-1.9%,2.7%,2.6,3,1.1,-5,8%
CC1(C)c2ccccc2N2CC(=O)N[C@@]21/C=C/C=C/c1ccccc1,-0.4%,1.8%,8.5,13,0.3,11,1%
Cc1ccc(CSc2nc3ccc(NC(=O)CC(C)C)cc3s2)cc1,-8.7%,2.2%,·,·,1.0,3,·
N#Cc1cc([N+](=O)[O-])ccc1NC(=O)COC(=O)CC1CCCC1,0.2%,1.6%,-0.9,-23,0.9,33,-25%
CC(=O)c1sc(NC(C)c2ccccc2)nc1C (centres undefined),·,4.8%,4.2,2,-0.1,0,-6%
CCN(CC)C(=O)Cn1c(=O)n(CCC(=O)Nc2ccc(F)cc2)c(=O)c2sccc21,-0.2%,0.3%,0.4,-10,-0.4,4,17%
C=CCNc1nc2cc(-c3ccccc3C)sc2c(=O)n1C,-8.8%,8.4%,·,·,-0.9,·,·
COc1ccc(CNC(=O)CCCCCNC(=O)N2CCn3c2nc2ccccc23)cc1,-2.2%,0.7%,·,3,-0.8,-5,13%
COCC1CCN(C(=O)CCc2nnc(CCCCc3ccccc3)o2)CC1,·,8.0%,1.2,0,-0.5,8,18%
CCCNC(=O)NC(=O)CSc1ccc(C)cc1C,·,3.9%,-3.4,3,1.5,1,3%
COc1ccc(C2/C=C\CC(NS(=O)(=O)c3ccc(C)cc3)CC(=O)N2Cc2ccccc2F)cc1 (centres undefined),-2.4%,-0.7%,·,·,0.3,7,·
COC(=O)[C@]12CCCCC=C1N(Cc1ccccc1)C(=O)[C@H](CC(=O)NCc1ccc(C)o1)C2,2.9%,-0.5%,·,·,-1.0,·,·
O=C(NCCc1ccc(Cl)cc1)C1CCN(c2cnccn2)CC1,-16%,3.2%[38.3 µM],-0.6,1,-0.8,-2,14%
Cn1cc(CC(=O)NCc2ccc(F)cc2)c2ccccc21,-0.3%,1.3%,?,8,-1.6,-14,2%
COc1ccc(NC(=O)N(C)C[C@@H]2OCc3cnnn3CCCC(=O)N([C@H](C)CO)C[C@H]2C)cc1,-0.8%,3.2%,·,·,2.6,33,·
CC1CCN(c2ccc(S(=O)(=O)NC3=NCCCCC3)cc2[N+](=O)[O-])CC1,-2.7%,-1.6%,-0.9,-22,0.5,-16,19%
O=S(=O)(c1ccccc1F)N1CCN(c2nc(-c3cccs3)nc3ccccc23)CC1,4.6%,0.5%&-0.3%,·,·,0.0&-0.4,·,·
O=C(N/N=C/c1ccncc1)c1cccc(S(=O)(=O)N2CCCC2)c1,1.6%,3.2%,·,12,-0.5,-13,·
C/C=N/NC(=O)CCCC(=O)N/N=C/C,-0.9%,-1.1%,0.4,3,1.6,1,8%

A different layout for some results above:
Values run as follows: ClpP mod, PINK1 expr mod, Menin MLL FP FL, TRPV1 potentiator, TRPML1 agonist, TRPML1 blocker, Sfp inh
- COc1cccc(N=C2NC(=O)/C(=C/c3cc([N+](=O)[O-])ccc3O)S2)c1
  ·, 0.5%, ?, 9, 12, -13, -8%
- N#Cc1cc([N+](=O)[O-])ccc1NC(=O)COC(=O)CC1CCCC1
  0.2%, 1.6%, -0.9, -23, 0.9, 33, -25%
- CCc1ccc(N2CC(C(=O)N3CCN(c4ccccn4)CC3)CC2=O)cc1 (centres undefined)
  28µM*, 2.5%, ·, -7, -0.2, 5, ·
- COC(=O)C1=C2SC(C)C(=O)N2C(N)=C(C#N)C1c1cc(OC)c(OC)c(OC)c1 (centres undefined)
  0.0%, -1.8%, 4.3, -10, -0.8, 9, 35µM*
- Cc1cccc(-c2nc(CN3CCN(Cc4cccc(F)c4)CC3)c(C)o2)c1
  -3.2%, 2.1%, 0.2, 15, 0.3, -1, -2%

New compounds follow:
Structure,ClpP mod,PINK1 expr mod,Menin MLL FP FL,TRPV1 potentiator,TRPML1 agonist,TRPML1 blocker,Sfp inh
O=C(NCc1cccnc1)/C(=C/c1ccc(-c2cccc(Cl)c2)o1)S(=O)(=O)c1ccccc1,1.5%,-2.7%,3.0,16,-0.3,0,-9%
Cc1nc2c(-c3ccc(F)cc3)c(C)nn2c(C)c1CCC(=O)N1CCN(c2ccccc2)CC1,-8.1%&1.7%,3.2%&1.0%,-0.5,·,-0.8&0.9,-19&6,11%
CN(C)C(=O)c1cccn(Cc2ccc(C(F)(F)F)cc2)c1=O,·,1.8%,2.3,-7,0.0,6,12%
CC(C)c1ccc(/C=C2\SC(=O)N(CC(=O)NC3CCS(=O)(=O)C3)C2=O)cc1 (centres undefined),-1.1%,4.8%,·,-16,-0.5,26,?
CC(C)Oc1ccc(/C(O)=C2/C(=O)C(=O)N(CCN3CCNCC3)C2c2ccc(C(C)C)cc2)cc1 (centres undefined),0.5%,0.0%,-11,-8,·,·,6%
COc1ccc(-c2nnc(SCC(=O)Nc3cccnc3Cl)n2C)cc1,-2.9%,2.6%,·,0,0.3,-8,·
CCOC(=O)C(=O)C1(C(=O)OCC)Oc2cc(OC)cc(OC)c2C(=O)C1c1ccccc1 (centres undefined),·,-0.3%,-1.0,·,·,·,-19%
O=C(Nc1cccc(O)c1)c1ccc(Br)c(S(=O)(=O)N2CCCCC2)c1,0.1%,?,3.4,5,-0.2,7,14%
O=C(N/N=C/c1ccccc1O)C1SCCCS1,-24%,-1.0%,-2.7,-5,0.2,14,3%
CCOC(=O)C1CCN(CC(=O)N2CCCc3c2c(=O)oc2ccc(OCc4ccccc4)cc32)CC1,-11%,1.6%,·,·,0.4,1,·
Cc1ccccc1C(=O)NCCCNC(=O)c1ccco1,·,1.8%,-0.7,-9,-0.1,-17,13%
O=C(COc1cccc2cccnc12)NCc1cccs1,·,1.5%,-3.8,-5,0.2,-24,5%
CC(=O)c1c(O)cc(C)n(Cc2ccccc2)c1=O,0.6%,4.5%[38.3 µM],·,·,2.7,24,·
